Assay outcomes: PubChem, National Center for Advancing Translational Sciences (NCATS)
GCN5L2 inh: GCN5L2 (KAT2A) acetyltransferase inhibition; GCN5L2 HAT assay, ThioGlo1 CoA-SH fluorescence; Potency, µM (highest dose often 58.9 µM), for inactives: top-dose activity change, negative = inhibition, hits mostly inhibitors; 0.21% of 390,000 active
Target sequence (Q92830 whole entry, looked up): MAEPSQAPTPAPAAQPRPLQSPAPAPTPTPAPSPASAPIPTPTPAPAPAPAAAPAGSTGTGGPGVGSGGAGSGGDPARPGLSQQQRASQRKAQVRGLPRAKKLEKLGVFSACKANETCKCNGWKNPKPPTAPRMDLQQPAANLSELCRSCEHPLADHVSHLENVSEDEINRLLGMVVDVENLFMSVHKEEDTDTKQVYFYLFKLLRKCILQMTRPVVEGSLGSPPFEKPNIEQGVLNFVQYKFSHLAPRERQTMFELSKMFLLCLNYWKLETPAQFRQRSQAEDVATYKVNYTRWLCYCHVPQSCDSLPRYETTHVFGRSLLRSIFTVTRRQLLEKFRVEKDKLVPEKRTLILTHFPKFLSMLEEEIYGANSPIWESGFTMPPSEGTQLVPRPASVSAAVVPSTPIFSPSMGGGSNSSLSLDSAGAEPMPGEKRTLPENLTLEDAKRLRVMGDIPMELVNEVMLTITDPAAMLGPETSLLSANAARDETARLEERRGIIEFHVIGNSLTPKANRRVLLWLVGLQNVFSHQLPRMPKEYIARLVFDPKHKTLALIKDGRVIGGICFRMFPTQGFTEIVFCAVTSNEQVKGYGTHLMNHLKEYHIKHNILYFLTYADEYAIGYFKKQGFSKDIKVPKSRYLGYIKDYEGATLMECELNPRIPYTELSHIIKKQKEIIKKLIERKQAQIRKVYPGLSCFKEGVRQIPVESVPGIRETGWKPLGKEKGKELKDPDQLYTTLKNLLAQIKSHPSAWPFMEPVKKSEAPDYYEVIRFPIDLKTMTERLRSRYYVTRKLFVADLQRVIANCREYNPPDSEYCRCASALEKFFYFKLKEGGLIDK
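Free CoA generated was detected with ThioGlo1 (50uM) fluorescence at Ex340nm/Em540nm, read immediately and after 20 min at room temperature. Enzyme, 20 nM in HEPES pH 7.5 buffer, saw compounds 15 min before adding 75uM H3(1-25) peptide and 70uM acetyl-CoA.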
FEN1 inh: blocks human flap endonuclease 1; Potency, µM (highest dose often 114 µM), for the others: at the top dose activity change, negative = inhibition, actives largely listed as inhibitors; Recombinant FEN1 flap cleavage, fluorescence, 15 min; 0.35% of 390,000 active; P39748; further: nearly all actives have a fitted effect of over 65% in size
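Nuclease activity of 10 nM FEN1 was measured after 15 min of room-temperature exposure to titrated compounds, by adding 50 nM flap substrate and reading plates at 0 and 15 min.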
* = called active by the depositor; u = inconclusive. The call rests on the fitted dose curve; in most records, active means well fitted curve in the direction sought with a large enough effect; inconclusive means small, poorly fitted or top-dose-only effect, or another doubt; inactive means no such curve, though single readings can be large; an effect the other way counts as inactive or inconclusive. On the % scale 0 is the no-effect control and ±100 the full control effect; potency means the concentration at half of the fitted maximal effect.

CNC(=O)c1ccc(Oc2ccc(C(=O)NC)cc2)cc1
  GCN5L2 inh: -13%
  FEN1 inh: -3%

O=C(c1cccc(F)c1)N1CCN(c2cc(N3CCCCC3)c(F)cc2[N+](=O)[O-])CC1
  GCN5L2 inh: u
  FEN1 inh: -15%

CC(=O)Nc1ccc(NS(=O)(=O)c2cc(-c3cnc(C4CC4)o3)ccc2C)cc1
  GCN5L2 inh: -14%
  FEN1 inh: 0%

CCN(CC)S(=O)(=O)c1ccc2nc(CCl)[nH]c2c1
  GCN5L2 inh: -10%
  FEN1 inh: 4%

O=C(CN1C(=O)CSC1=O)N1CCc2ccccc2C1
  GCN5L2 inh: -3%
  FEN1 inh: -5%

Cc1sc2ncn(CC(=O)N3CCN(c4ccccn4)CC3)c(=O)c2c1S(=O)(=O)N1CCC(C)CC1
  GCN5L2 inh: -1%
  FEN1 inh: -12%

Cn1c(=O)oc2cc(S(=O)(=O)Nc3ccc4c(c3)OCO4)ccc21
  GCN5L2 inh: 1%
  FEN1 inh: -13%

CCC(C)(C)NC(=O)CN(C(=O)CCC(=O)Nc1nccs1)c1cccc(C)c1
  GCN5L2 inh: 3%
  FEN1 inh: 27%

CCN1CCN(c2ccc(N3CCN(S(=O)(=O)c4ccc(C)c([N+](=O)[O-])c4)CC3)nn2)CC1
  GCN5L2 inh: -2%
  FEN1 inh: -8%

CSc1nc2[nH]c3c(c2c2nncn12)CC(C)(C)OC3
  GCN5L2 inh: 0%
  FEN1 inh: -2%

O=C(ON=C1CCN(S(=O)(=O)c2ccccc2)CC1)c1ccc(Cl)cc1
  GCN5L2 inh: -5%
  FEN1 inh: -14%

Cc1cc(NC(=O)c2cccs2)n(-c2nc3ccccc3[nH]2)n1
  GCN5L2 inh: -5%
  FEN1 inh: -3%

COc1ccc(S(=O)(=O)N2CCC(C(=O)NCC(c3cccs3)N(C)C)CC2)cc1 (configuration not stated)
  GCN5L2 inh: 0%
  FEN1 inh: -2%

O=C(Nc1ccccc1C(=O)Nc1ccccc1)c1ccccc1F
  GCN5L2 inh: -2%
  FEN1 inh: 16%

CC(=O)Nc1ccc(OCC(=O)NCc2ccc(C)cc2)cc1
  GCN5L2 inh: -9%
  FEN1 inh: 0%

C/C(=N/NC(=O)CN1CCN(S(=O)(=O)c2ccc(Br)cc2)CC1)c1ccco1
  GCN5L2 inh: 1%
  FEN1 inh: 4%

CCCCN(C)Cc1c(O)ccc2c(-c3ccccc3)cc(=O)oc12
  GCN5L2 inh: -6%
  FEN1 inh: 9%

COCc1nnc(NC(C)=O)s1
  GCN5L2 inh: -6%
  FEN1 inh: -4%

O=C(O)c1cnn2c1C(=O)N(Cc1cccs1)CC2
  GCN5L2 inh: 0%
  FEN1 inh: -3%

CCCC(=O)Nc1cc(C(=O)O)ccc1S(=O)(=O)c1ccc(Cl)cc1
  GCN5L2 inh: -3%
  FEN1 inh: 6%

C#CCOC(=O)/C(=C/C=C/c1ccccc1)NC(=O)c1ccccc1
  GCN5L2 inh: -10%
  FEN1 inh: -5%

Cc1cccc(OCc2nnc(SCC(=O)NC3CCCC3)n2C)c1
  GCN5L2 inh: -7%
  FEN1 inh: -1%

Cc1ccccc1OCC(=O)NNC(=O)Nc1ccc(Cl)cc1
  GCN5L2 inh: 2%
  FEN1 inh: -11%

Fc1cc2[nH]c(=S)[nH]c2c(Br)c1N1CCSCC1
  GCN5L2 inh: -2%
  FEN1 inh: 16%

CCOc1cccc(-c2c(C(=O)N/N=C/c3ccc(Br)cc3)nnn2-c2nonc2N)c1
  GCN5L2 inh: -6%
  FEN1 inh: -5%

CCC(Sc1nc(-c2ccccc2)c(C#N)c(=O)[nH]1)C(=O)Nc1cc(C)on1 (configuration not stated)
  GCN5L2 inh: -4%
  FEN1 inh: -13%

Cc1cccc(Cn2cnc3c(NS(C)(=O)=O)c(C)c(C)cc32)c1
  GCN5L2 inh: 10%
  FEN1 inh: -2%

O=C(Oc1coc(CSc2ncccn2)cc1=O)c1ccco1
  GCN5L2 inh: 1%
  FEN1 inh: -2%

CNC(=O)c1ccc(-c2ccc(F)cc2)s1
  GCN5L2 inh: -3%
  FEN1 inh: 4%

CC1(C)CC(C)(O)N(Cc2ccccc2)C(=S)N1 (configuration not stated)
  GCN5L2 inh: 1%
  FEN1 inh: -4%

O=C(O)c1cccc(NC(=O)c2ccccc2NC(=O)c2ccco2)c1
  GCN5L2 inh: -10%
  FEN1 inh: 17%

Cc1cc(C(=O)CCC(=O)Nc2ncccc2C)c(C)s1
  GCN5L2 inh: -15%
  FEN1 inh: -3%

COc1ccc(S(=O)(=O)NCCC(=O)NCc2ccccc2)cc1
  GCN5L2 inh: -3%
  FEN1 inh: -1%

Cc1ccc(CSCCNC(=O)CSCc2ccc([N+](=O)[O-])cc2)cc1
  GCN5L2 inh: -1%
  FEN1 inh: 0%

Cc1ccc(CN2CC(C(=O)Nc3ccc(C)cn3)CC2=O)cc1 (configuration not stated)
  GCN5L2 inh: 2%
  FEN1 inh: 2%

CC(C(=O)N1CCN(C=O)CC1)N1C(=O)c2ccccc2C1=O (configuration not stated)
  GCN5L2 inh: -8%
  FEN1 inh: 1%

NC(=O)CSCc1ccc(Br)cc1
  GCN5L2 inh: 4%
  FEN1 inh: -11%

O=C(COc1ccc(S(=O)(=O)N2CCCC2)cc1Cl)NC1CC1
  GCN5L2 inh: 1%
  FEN1 inh: 11%

CN(Cc1cccs1)C(=O)CSc1nc(N)cc(N)n1
  GCN5L2 inh: -3%
  FEN1 inh: 2%

Cn1nccc1CNC(=O)c1c(Cl)cnn1C
  GCN5L2 inh: 0%
  FEN1 inh: 12%

Cc1ccc(-c2csc(/C(C#N)=C/Nc3ccc4c(c3)OCCO4)n2)cc1
  GCN5L2 inh: -2%
  FEN1 inh: 16%

COc1ccc(-c2ccc(-c3noc(-c4cccs4)n3)c(OC)n2)cc1
  GCN5L2 inh: -18%
  FEN1 inh: 4%

NC(=O)C1=C[C@H](c2ccc(C(F)(F)F)cc2)C[C@H](OCCCCO)O1
  GCN5L2 inh: -4%
  FEN1 inh: -6%

CC(C)Cn1cnc2c1c(=O)n(CC(O)c1ccccc1)c(=O)n2CC(C)C (configuration not stated)
  GCN5L2 inh: -4%
  FEN1 inh: 3%

Cc1nc(NC(=O)c2ccc(Br)o2)sc1C
  GCN5L2 inh: 0%
  FEN1 inh: -2%

As entered above.
Value of `C#CCOC(=O)/C(=C/C=C/c1ccccc1)NC(=O)c1ccccc1` in GCN5L2 inh: -10%
Value of `Cc1cc(C(=O)CCC(=O)Nc2ncccc2C)c(C)s1` in GCN5L2 inh: -15%

(list continues)
CCc1ccc(C(=O)COC(=O)c2nn(C)c(=O)c3ccccc23)cc1
  GCN5L2 inh: u
  FEN1 inh: 2%

CCS(=O)CCSC(=N)N (configuration not stated)
  GCN5L2 inh: 0%
  FEN1 inh: 2%

COc1ccc(-n2c(COc3cccc4ccccc34)nnc2SCC#N)cc1
  GCN5L2 inh: -8%
  FEN1 inh: -7%

CCNC(=O)C(CC(C)C)NC(=O)C(CO)NC(=O)C1CCC(=O)N1 (configuration not stated)
  GCN5L2 inh: -8%
  FEN1 inh: -18%

COc1cc(CCN2C(=O)c3cccc4cccc(c34)C2=O)c(S(=O)(=O)NCCCO)cc1OC
  GCN5L2 inh: -5%
  FEN1 inh: -1%

Cc1ccnc(N2CCC(C(=O)Nc3cccc(C(F)(F)F)c3)CC2)n1
  GCN5L2 inh: -2%
  FEN1 inh: -11%

CCN(c1ccccc1)S(=O)(=O)c1cccc(C(=O)N(C)CCOc2ccccc2)c1
  GCN5L2 inh: -3%
  FEN1 inh: -20%

COc1ccccc1CCNC(=O)c1c(C)nn(CC(C)C)c1Cl
  GCN5L2 inh: -1%
  FEN1 inh: -14%

CCOC(=O)c1c(CC(C)C)csc1NC(C)=O
  GCN5L2 inh: -6%
  FEN1 inh: -2%

CC(/C=N/NC(=O)c1cccs1)=C\c1ccccc1
  GCN5L2 inh: -2%
  FEN1 inh: -1%

COc1ccc(NC(=S)N(C)CC2COc3ccccc3O2)cc1 (configuration not stated)
  GCN5L2 inh: 3%
  FEN1 inh: -8%

NS(=O)(=O)c1cc(C(=O)OCC(=O)N2CCOCC2)ccc1Cl
  GCN5L2 inh: -3%
  FEN1 inh: -3%

O=c1[nH]c2cc(Cl)c([N+](=O)[O-])nc2[nH]1
  GCN5L2 inh: -1%
  FEN1 inh: 0%

Cc1c(-c2ccccc2)nc(N)c(C#N)c1-c1cccnc1
  GCN5L2 inh: -1%
  FEN1 inh: -5%

CN1c2ccsc2C(O)=C(C(=O)Nc2ccccc2)S1(=O)=O
  GCN5L2 inh: -5%
  FEN1 inh: 4%

Rewritten tab-delimited: entries from further up.
SMILES	GCN5L2 inh	FEN1 inh
Fc1cc2[nH]c(=S)[nH]c2c(Br)c1N1CCSCC1	-2%	16%
CCOc1cccc(-c2c(C(=O)N/N=C/c3ccc(Br)cc3)nnn2-c2nonc2N)c1	-6%	-5%
CCC(Sc1nc(-c2ccccc2)c(C#N)c(=O)[nH]1)C(=O)Nc1cc(C)on1 (configuration not stated)	-4%	-13%
Cc1cccc(Cn2cnc3c(NS(C)(=O)=O)c(C)c(C)cc32)c1	10%	-2%
O=C(Oc1coc(CSc2ncccn2)cc1=O)c1ccco1	1%	-2%
CNC(=O)c1ccc(-c2ccc(F)cc2)s1	-3%	4%
CC1(C)CC(C)(O)N(Cc2ccccc2)C(=S)N1 (configuration not stated)	1%	-4%
O=C(O)c1cccc(NC(=O)c2ccccc2NC(=O)c2ccco2)c1	-10%	17%
Cc1cc(C(=O)CCC(=O)Nc2ncccc2C)c(C)s1	-15%	-3%
COc1ccc(S(=O)(=O)NCCC(=O)NCc2ccccc2)cc1	-3%	-1%
Cc1ccc(CSCCNC(=O)CSCc2ccc([N+](=O)[O-])cc2)cc1	-1%	0%
Cc1ccc(CN2CC(C(=O)Nc3ccc(C)cn3)CC2=O)cc1 (configuration not stated)	2%	2%
CC(C(=O)N1CCN(C=O)CC1)N1C(=O)c2ccccc2C1=O (configuration not stated)	-8%	1%
NC(=O)CSCc1ccc(Br)cc1	4%	-11%
O=C(COc1ccc(S(=O)(=O)N2CCCC2)cc1Cl)NC1CC1	1%	11%
CN(Cc1cccs1)C(=O)CSc1nc(N)cc(N)n1	-3%	2%
Cn1nccc1CNC(=O)c1c(Cl)cnn1C	0%	12%
Cc1ccc(-c2csc(/C(C#N)=C/Nc3ccc4c(c3)OCCO4)n2)cc1	-2%	16%
COc1ccc(-c2ccc(-c3noc(-c4cccs4)n3)c(OC)n2)cc1	-18%	4%
NC(=O)C1=C[C@H](c2ccc(C(F)(F)F)cc2)C[C@H](OCCCCO)O1	-4%	-6%
CC(C)Cn1cnc2c1c(=O)n(CC(O)c1ccccc1)c(=O)n2CC(C)C (configuration not stated)	-4%	3%

Next section.
COc1cccc(C(=O)COc2ccc3ccc(=O)oc3c2)c1
  GCN5L2 inh: -3%
  FEN1 inh: 15%

CCCn1c(SCC(=O)Nc2nc(C)cs2)nnc1-c1cccnc1
  GCN5L2 inh: 7%
  FEN1 inh: 2%

CCCCCCCC1CC(CSC(=N)N)OC1=O (configuration not stated)
  GCN5L2 inh: -4%
  FEN1 inh: -2%

Nc1ccc(Nc2nc(-c3ccncc3)cs2)cc1
  GCN5L2 inh: 0%
  FEN1 inh: -22%

CCCc1cc(Nc2ccccc2C)n2ncnc2n1
  GCN5L2 inh: -6%
  FEN1 inh: 1%

COc1ccc(CCNC(=O)c2ccccc2NS(=O)(=O)c2cc(C(=O)O)ccc2OC)cc1
  GCN5L2 inh: -2%
  FEN1 inh: 20%

O=C(Nc1cccc(O)c1)c1ccccc1
  GCN5L2 inh: -6%
  FEN1 inh: 11%

COc1cccc(/C=N/NC(=O)CN2CC(c3ccccc3)CC2=O)c1OC (configuration not stated)
  GCN5L2 inh: -7%
  FEN1 inh: -3%

O=C(CS(=O)(=O)Cc1ccccc1)Nc1nnc(C2CCCCC2)s1
  GCN5L2 inh: -7%
  FEN1 inh: -9%

These rows are one share of the data, and most or all hits are left out here.
